Assay outcomes deposited in PubChem by National Center for Advancing Translational Sciences (NCATS).
GCN5L2 inh: qHTS Assay for Inhibitors of GCN5L2; hit rate 0.21% among 390,000; GCN5L2 HAT assay, ThioGlo1 CoA-SH fluorescence; Potency, µM (highest dose often 58.9 µM), for the others: at the top dose activity change, negative = inhibition, hits mostly inhibitors; Histone acetyltransferase KAT2A (Homo sapiens), Q92830; AID 504327, 2011; active = well fitted inhibition curve with a large enough effect
Target sequence (Q92830 whole entry, looked up): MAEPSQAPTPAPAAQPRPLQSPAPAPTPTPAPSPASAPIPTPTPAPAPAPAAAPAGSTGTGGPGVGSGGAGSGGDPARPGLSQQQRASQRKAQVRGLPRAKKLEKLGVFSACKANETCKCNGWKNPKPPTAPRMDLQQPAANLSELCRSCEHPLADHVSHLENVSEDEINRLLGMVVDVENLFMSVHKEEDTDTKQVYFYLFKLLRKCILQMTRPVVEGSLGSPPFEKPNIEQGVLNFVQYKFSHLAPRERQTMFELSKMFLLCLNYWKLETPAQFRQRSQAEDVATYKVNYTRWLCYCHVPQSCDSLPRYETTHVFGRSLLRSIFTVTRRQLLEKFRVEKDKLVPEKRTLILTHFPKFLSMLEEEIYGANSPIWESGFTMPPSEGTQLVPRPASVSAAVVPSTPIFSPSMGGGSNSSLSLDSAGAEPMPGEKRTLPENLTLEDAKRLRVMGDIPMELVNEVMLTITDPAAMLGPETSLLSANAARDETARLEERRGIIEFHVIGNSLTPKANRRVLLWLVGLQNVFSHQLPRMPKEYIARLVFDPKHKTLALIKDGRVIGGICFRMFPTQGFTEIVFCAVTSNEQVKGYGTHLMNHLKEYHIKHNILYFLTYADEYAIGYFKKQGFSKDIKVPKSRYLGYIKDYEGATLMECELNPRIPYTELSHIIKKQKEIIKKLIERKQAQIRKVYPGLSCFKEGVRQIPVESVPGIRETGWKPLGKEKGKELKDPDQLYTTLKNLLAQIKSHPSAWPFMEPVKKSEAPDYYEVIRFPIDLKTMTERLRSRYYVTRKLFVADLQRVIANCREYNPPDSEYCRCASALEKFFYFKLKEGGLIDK
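Free CoA generated was detected with ThioGlo1 (50uM) fluorescence at Ex340nm/Em540nm, read immediately and after 20 min at room temperature. Enzyme, 20 nM in HEPES pH 7.5 buffer, saw compounds 15 min before adding 75uM H3(1-25) peptide and 70uM acetyl-CoA.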
Numbers without * were called inactive; & = joins results of further samples. % is set by controls: 0 for no effect and ±100 for the full control effect; potency is the fitted concentration of half-maximal effect. Some of the compounds tested; most or all hits stand in other tables.

item	GCN5L2 inh	molecule
1	-5%	COCCNc1oc(-c2ccc(C)cc2)nc1C#N
2	-9%	CCN(CC)S(=O)(=O)c1ccc2oc(Nc3ccccc3)nc2c1
3	-9%	CSc1ccccc1C(=O)NCc1cccnc1
4	-8%	O=C(Nc1ccc(N2CCOCC2)cc1)c1ccc(-c2ccccc2[N+](=O)[O-])o1
5	-1%	O=C(Nc1nc2ccc(S(=O)(=O)N3CCCC3)cc2s1)c1cccs1
6	-3%	O=C(Nc1ccccc1Cl)c1ccc2c(=O)n3c(nc2c1)CCC3
7	3%	CCC(=O)N1c2ccccc2CC1C(=O)NCCc1ccc(OC)c(OC)c1 (centres undefined)
8	-14%	CCC(C)NC(=O)N1c2ccccc2Sc2ccccc21 (centres undefined)
9	2%	O=C(NCc1cccnc1)C1COc2ccccc2O1 (centres undefined)
10	-2%&1%	O=C(NCCc1ccc(Cl)cc1)c1ccc(CS(=O)Cc2ccccc2Cl)o1 (centres undefined)
11	-1%	Cc1ccc(S(=O)(=O)N2CCOCC2)cc1C(=O)N1CCOCC1
12	-2%	CCc1ccc(C(C(=O)NC2CCCC2)N(Cc2cccnc2)C(=O)c2csnn2)cc1 (centres undefined)
13	-9%	Cc1cc2oc(=O)c(CC(=O)NCCc3ccccc3F)c(C)c2c2occ(C(C)(C)C)c12
14	-1%	Cc1ccc(NS(=O)(=O)c2cc(C(N)=O)ccc2C)cc1
15	-8%	O=C(Nc1ccc(N2CCN(C(=O)c3ccco3)CC2)cc1)c1cccc(F)c1
16	-11%	CCOC(=O)N/N=C(\C)c1ccc(Br)cc1
17	-10%	COc1ccccc1NC(=O)C1(C)Cc2ccccc2C(=O)O1 (centres undefined)
18	-2%	Cc1cccn2c(=O)c(C=NCc3ccccc3)c(NCCO)nc12
19	-1%	CCN(CC)C(=O)CSc1nc2ccccc2c(=O)n1-c1ccccc1OC
20	-2%	OCC1(CO)COC(/C=C/c2ccccc2)=N1
21	-1%	Cn1c(=O)c2[nH]c(C3CCCC3)nc2n(C)c1=O
22	10%	COc1ccc(NC(=O)C2CCN(C(=O)c3sc4nc[nH]c(=O)c4c3C)CC2)c(OC)c1
23	0%	Cc1ccc(C)c(-n2cc[nH]c2=S)c1
24	-14%	CCC(=O)Nc1ccc(Cl)c(-c2nc3ccccc3[nH]2)c1
25	-5%	Cc1ccc2c(c1)C1CN(C)CCC1N2C(=O)c1cccc(S(=O)(=O)N(C)C)c1 (centres undefined)
26	-2%	CCN(C(=O)CSc1nnc(-c2ccccc2)o1)c1c(N)n(Cc2ccccc2)c(=O)[nH]c1=O
27	1%	O=C(CSc1nncn1-c1ccccn1)Nc1cccc(Cl)c1
28	0%	CCOC(=O)C1=NOC2COC3(CCN(c4ncccn4)CC3)OCC12 (centres undefined)
29	-5%	Cc1ccc(-c2csc(=S)n2CC(=O)OCC(=O)NC(C)C(C)C)cc1 (centres undefined)
30	-4%	COC(=O)Cn1cc(/C=C(/C#N)C(=O)N2CCOCC2)c2ccccc21
31	-3%	CC1=C(C)CC(C(=O)NCc2ccccn2)C(C(=O)O)C1 (centres undefined)
32	-9%	Cc1cccc(NC(=O)CSc2nnc(NC(=O)c3ccco3)s2)c1
33	-9%	CC(=O)c1sc(NC(=O)C2COc3ccccc3O2)nc1C (centres undefined)
34	0%	CCCNC(=O)Cn1c(=O)/c(=C\c2ccc(-c3ccc([N+](=O)[O-])cc3)o2)s/c1=C\C(=O)C(C)(C)C
35	1%	COc1ccc(CCNC(=O)c2nn(C)c3c2CS(=O)(=O)c2ccccc2-3)c(OC)c1
36	2%	CCCn1c(SCCN2C(=O)c3ccccc3C2=O)n[nH]c1=O
37	-2%	CCOc1ccc(C(=O)N2CCN(c3cnn(-c4ccccc4)c(=O)c3Cl)CC2)cc1
38	2%	Cc1cncn1CCc1nc2c3ccccc3nc(SCC(=O)Nc3ccc(F)cc3)n2n1
39	-6%	O=C1C=C(c2ccc(C(=O)O)cc2)C[C@@H](c2ccc(Cl)cc2)C1
40	1%	Cc1cccc(NC(=O)COC(=O)Cc2cccs2)c1C
41	2%	COCCNC(=O)C(c1ccc(C)cc1)N(CCOC)C(=O)CCC(=O)Nc1nccs1 (centres undefined)
42	1%	COc1ccc(C(CNC(=O)c2cccc(NS(=O)(=O)c3ccc(C)c(F)c3)c2)N2CCCC2)cc1 (centres undefined)
43	-2%	CC(C)(C)C(=O)NCCCc1ccccc1
44	-8%	C=CCOc1cccc(C2C(C(=O)c3ccco3)=C(O)C(=O)N2Cc2cccnc2)c1 (centres undefined)
45	-13%	O=C(NCc1ccc(OC(F)(F)F)cc1)C1CC(c2ccccc2[N+](=O)[O-])=NO1 (centres undefined)
46	-4%	Cc1onc(-c2ccccc2Cl)c1C(=O)N1CCCCC1
47	-8%	Cc1c(C(=O)c2ccc(Cl)c([N+](=O)[O-])c2)c2ccccn2c1CCC#N
48	-4%	CN1CCN(NC(=O)c2ccc(S(=O)(=O)N3CC4(C)CC3CC(C)(C)C4)cc2)CC1 (centres undefined)
49	-2%	COc1ccc(S(N)(=O)=O)cc1C(=O)OCC1CCCCC1
50	-9%	CC(C)Cn1c(=O)c(C(=O)NCc2ccccn2)c(O)c2ccccc21

Remaining list, next part
item	GCN5L2 inh	molecule
51	-4%	CSc1cccc(NC(=O)C2CC(=O)N(Cc3ccccc3)C2)c1 (centres undefined)
52	-4%	O=C1C2C3C=CC(C4CC34)C2C(=O)N1Cc1ccco1 (centres undefined)
53	-7%	CCCc1cc(C(=O)N2CCCC(Cc3ccccc3C)(C(=O)OCC)C2)no1 (centres undefined)
54	2%	COc1cccc(Sc2ccccc2/C=N/NC(N)=O)c1
55	-6%	CCN(CC)S(=O)(=O)c1ccc(C(=O)NCc2ccc3c(c2)cc(C)n3C)cc1
56	-6%	COc1ccc(-c2[nH]c(-c3ccc(F)cc3)nc2SCC(=O)NCc2ccco2)cc1OC
57	-6%	CC1CCC2C(=O)N(c3cccc(C(=O)Nc4ccc(F)cc4)c3)C(=O)C2C1 (centres undefined)
58	2%	Nc1ccc(C(=O)Nc2ccc(OC(F)(F)C(F)F)c(NC(=O)c3ccc(N)cc3)c2)cc1
59	-2%	COc1ccc(N2CCN(C(=O)c3cc4c(s3)-c3ccccc3S(=O)(=O)C4)CC2)cc1
60	0%	CCCc1ccc(OCC(=O)Nc2sc(C(=O)OCC)c(C)c2C(=O)OCC)cc1
61	-4%	COc1ccc(C)cc1NC(=O)NNC(=O)C(C)Oc1ccc([N+](=O)[O-])cc1 (centres undefined)
62	-9%	CSc1nc2c(cc1C#N)C(=O)CC(C)(C)C2
63	-9%	O=C(O/N=C1/CCCc2occc21)c1ccccc1
64	3%	Nc1cc(C(=O)OCC(=O)NCC2CCCO2)ccc1Cl (centres undefined)
65	0%	COc1cccc(NC(=O)C2CCN(c3ccc(Sc4ccc(C)cc4)nn3)CC2)c1
66	-11%	CN1OC(COC(=O)c2ccc(Cl)cc2)CC1c1ccccc1 (centres undefined)
67	-6%	COc1ccc(OC)c(N2C(=O)c3cccnc3C2=O)c1
68	-8%	COc1ccc(-c2c(C#CC(C)(C)O)c3ccccc3n2C)cc1
69	3%	CCN(CC)S(=O)(=O)c1ccc(NC(=O)c2ccc(CN3CCOCC3)cc2)cc1
70	0%	Cc1cc(C)nc(NS(=O)(=O)c2ccc(NC(=O)C3(c4ccccc4)CCCC3)cc2)n1
71	-23%	CCOC(=O)N1CCN(C2=C(NS(=O)(=O)c3ccc(NC(C)=O)cc3)C(=O)c3ccccc3C2=O)CC1
72	-1%	Cc1occc1C(=O)NNC(=O)c1ccccc1F
73	-6%	CN(CCN(C)C(C)(C)C)C(=O)C(c1ccccc1)c1ccccc1
74	3%	Cc1ccc2cc(CN(CC3CCCO3)S(=O)(=O)c3c(C)ccc4nsnc34)c(=O)[nH]c2c1 (centres undefined)
75	2%	CCn1cc([N+](=O)[O-])c(C(=O)Nc2ccn(Cc3ccccc3F)n2)n1
76	-3%	CN(C)/C=N/c1cc(=O)[nH]c(=O)n1C
77	-1%	COc1ccccc1C(=O)N1CCN=C1SC
78	-2%	CCC(C)Sc1nc(O)cc(=O)[nH]1 (centres undefined)
79	1%	CCN(CC)CCNC(=O)c1c(O)c2cc(OC)c(OC)cc2[nH]c1=O
80	-2%	S=c1[nH]nc(Cc2cccs2)n1-c1ccccc1
81	0%	CCOC(=O)c1c(C)n(C)c2ccc(OC)c(NC(=O)CN3CCN(C(=O)c4ccco4)CC3)c12
82	-3%	Cc1nnc(N2CCC(C(=O)NCCc3ccccc3Cl)CC2)c2nn(-c3ccccc3)c(C)c12
83	-2%	COc1ccc(/C=C/C(=O)c2ccc3c4c(cccc24)CC3)cc1
84	7%	CN(C)S(=O)(=O)c1ccc(NC(=O)CCNC(=O)c2ccc([N+](=O)[O-])cc2)cc1
85	-1%	CCOC(=O)c1oc2ccc(CNCCO)c(Cl)c2c1C
86	-11%	COCCNC(=S)N1CCN(C/C=C/c2ccccc2)CC1
87	-11%	N#CCCCSc1nnc(CSc2nc3ccccc3s2)n1-c1ccccc1
88	-4%	O=C(Nc1ccc(F)cc1)c1ccc2c(=O)n(CC3CCCO3)c(=S)[nH]c2c1 (centres undefined)
89	-6%	O=[N+]([O-])c1ccc(NCCCNS(=O)(=O)c2ccccc2)cc1
90	0%	CC(C)CC(=O)Nc1nnn(C)n1
91	-8%	COc1cccc(N2CC(=O)N(NC(=O)CSc3nc(C)cc(C)c3C#N)CC2=O)c1
92	-1%	Nc1c([N+](=O)[O-])cc(-c2cnc[nH]2)cc1[N+](=O)[O-]
93	-14%	COc1ccc(-c2nn(-c3ccccc3)cc2C(=O)NC2CCC(C)CC2)cc1 (centres undefined)
94	-27%	CN1CCN(c2ccc(S(=O)(=O)N3CCCCC3)cc2NC(=O)CSCc2ccccc2)CC1
95	-14%	COC(=O)c1cc(NS(=O)(=O)c2ccc3c(c2)c(=O)n(C)c(=O)n3C)cc(C(=O)OC)c1
96	-6%&-7%	COc1cc(OC)c2c(-c3cccc(-c4ccc(OC)c(F)c4)c3)cc(=O)oc2c1
97	-4%	Cc1ccc(NC(=O)C(=O)NCC2CCCN2S(=O)(=O)c2cccs2)cc1C (centres undefined)
98	-1%	O=C(c1cc(COc2ccc(F)cc2Cl)on1)N1CCCC(OCc2cccnc2)C1 (centres undefined)
99	-22%	CCC1CCCCN1CCCNC(=O)CC1Oc2ccc(C)cc2NC1=O (centres undefined)
100	-4%	N/C(=N\c1nc2c(c(=O)[nH]1)CCCC2)Nc1ccc(Oc2ccccc2)cc1

Next section.
item	GCN5L2 inh	molecule
101	1%	O=C(CCc1nc(-c2ccccc2)no1)Nc1cccc(C(=O)NC2CC2)c1
102	-8%	CCCCCCCC(=O)OCC(=O)[C@@]1(O)CC[C@H]2[C@@H]3CCC4=CC(=O)CC[C@]4(C)[C@H]3[C@@H](O)C[C@@]21C
103	-3%	CCOC(=O)c1cccc(N2CC3CNC(=O)C2(C(=O)OC)N3C)c1 (centres undefined)
104	-7%	CN1CCN(Cc2cn(C)nc2-c2ccccc2F)CC1c1ccccc1 (centres undefined)
105	-5%	C=CCN1C=CC=C/C1=C1\SC(=S)N(C)C1=O
106	-8%	CCCC(C)NC1=NCCCCC1 (centres undefined)
107	4%	Cc1ccccc1OCc1nc2c3cnn(C)c3ncn2n1
108	-2%	CN(c1ccc(C(=O)N2CCCCCC2)cc1)S(=O)(=O)c1ccc(Cl)cc1
109	-8%	O=C(COC(=O)c1cccc(F)c1)Nc1ccc(Cl)cn1
110	-18%	O=C(CSc1nc2ccccc2nc1Cc1ccc(Cl)cc1)NCCc1ccccc1
111	-7%	Cn1cccc1/C=C1\SC(=S)N(NC(=O)c2ccccc2)C1=O
112	-7%	CC(=O)c1c(C)[nH]c(C(=O)Nc2nc(-c3ccc(-c4ccccc4)cc3)cs2)c1C
113	0%	CCc1cccc(NS(=O)(=O)c2c(C)nc3scc(C)n3c2=O)c1
